# D2 potentiator = potentiates the human D2 dopamine receptor allosterically; P14416; DiscoveRx D2 beta-arrestin cells, luminescence, 90 min; 100% = 57 uM dopamine signal; potentiation, % (test concentration not listed); 360,000 tested, 0.23% active; AID 624464; active = potentiation of 50% or more; inconclusive = 30% to 50%; inactive = 30% or less;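 note: compound concentration not given in the record; tested on top of an EC20 dose of dopamine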
# Target sequence (P14416 whole entry, looked up): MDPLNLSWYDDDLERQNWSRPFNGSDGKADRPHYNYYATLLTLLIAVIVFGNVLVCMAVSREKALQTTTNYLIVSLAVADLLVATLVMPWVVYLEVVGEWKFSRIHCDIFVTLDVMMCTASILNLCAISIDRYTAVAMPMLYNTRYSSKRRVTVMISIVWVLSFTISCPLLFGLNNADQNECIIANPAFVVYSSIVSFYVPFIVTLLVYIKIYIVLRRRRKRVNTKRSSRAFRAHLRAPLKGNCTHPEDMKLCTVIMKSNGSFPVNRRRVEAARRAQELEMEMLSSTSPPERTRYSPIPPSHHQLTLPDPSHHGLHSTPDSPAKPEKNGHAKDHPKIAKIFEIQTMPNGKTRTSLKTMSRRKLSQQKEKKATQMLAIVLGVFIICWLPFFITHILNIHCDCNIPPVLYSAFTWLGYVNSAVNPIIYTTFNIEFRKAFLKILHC
#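 PathHunter D2 cells, attached overnight at 37 deg C, received compound in DMSO plus dopamine at EC20 (50 nM final) for 90 min at 37 deg C. Beta-arrestin recruitment was read as luminescence after 1 h with detection reagent at ambient temperature.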
# gsp ag = activates gsp, the McCune-Albright syndrome mutation. AID 624287. 340,000 tested, 0.13% active. Potency, µM (series often up to 76.9 µM), for the others: at the highest dose activation (cAMP increase), most hits filed as activators. gsp mutant cells, cAMP HTRF, 30 min; control for the full effect not named in the record; active = well fitted activation curve with a large enough effect; inconclusive = small, poorly fitted or top-dose-only effect, or another doubt; inactive = no such curve, though single readings can be large or run the other way; cell line not stated here;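 note: phosphodiesterase inhibitor Ro 20-1724 added with compounds to block cAMP breakdown; potency is the fitted concentration of half-maximal effect; nearly all actives have a fitted effect of over 60% in size; about a fifth of the inactives were tested at one dose only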
#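 Cells in DMEM/10% FBS with G418 were pretreated with compounds in DMSO plus […] (300 uM stock) for 30 min at 37C. cAMP was measured by HTRF (cAMP-d2 plus anti-cAMP antibody-K) after 30 min at room temperature.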
# Sfp inh = blocks B. subtilis Sfp PPTase activity; 310,000 tested, 3.5% active; Potency, µM, inactives show max response, negative = inhibition, usual class: inhibitors; Q9F4F7; Biochemical Sfp PPTase activity, qHTS; active = well fitted inhibition curve with a large enough effect; inconclusive = small, poorly fitted or top-dose-only effect, or another doubt; inactive = no such curve, though single readings can be large or run the other way;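 note: the enzyme is Sfp with the accession as filed and its product quenches rhodamine fluorescence; potency is the fitted concentration of half-maximal effect; 0% = enzyme reaction without inhibitor and -100% = no enzyme wells; top concentration of the series not given in the record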
#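 Reaction rates are the 30-min fluorescence difference (ex 525, em 598 nm) in wells containing 15 nM Sfp, 5 uM rhodamine-CoA and 12.5 uM BHQ-2-YbbR at pH 7.6 with 10 mM MgCl2.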
# Menin MLL FP FL = inhibitors of human menin-MLL interaction, wild-type MLL peptide. Fluorescence polarization, fluorescein-MLL peptide displacement from menin. FP activity change, % at 61.4 µM. 290,000 tested, under 10 active; inconclusive = falling polarisation curve, or a change in total fluorescence; inactive = total fluorescence flat and polarisation flat or rising; no compound was filed as active; the % refers to the polarisation; negative = inhibition;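 note: % of control where 0% means no effect; inhibitors lower the polarisation; unlabelled MLL peptide was the positive control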
# gsp antag = antagonizes gsp, the McCune-Albright syndrome mutation | 340,000 tested, 0.4% active | Potency, µM (titrated, usually from 76.9 µM), for inactives: at the top dose activity change, negative = inhibition, actives largely listed as inhibitors | gsp-mutant cells, cAMP HTRF, 30 min; control for the full effect not named in the record; active = falling curve of any shape with a large fitted effect; inconclusive = falling curve, mostly with a smaller effect; inactive = flat or rising curve; cell line not stated here;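 note: intracellular cAMP measured with PDE inhibitor Ro 20-1724 present during compound exposure; potency is the fitted concentration of half-maximal effect; % is set by controls: 0 for no effect and ±100 for the full control effect; nearly all actives have a fitted effect of over 65% in size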
#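 G418-selected cells were plated in DMEM/10% FBS for 16-24 h at 37C, then treated with compounds plus the PDE inhibitor […] (300 uM solution added) for 30 min at 37C. Intracellular cAMP was measured by HTRF after 30 min lysis at room temperature.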
# TRPV1 potentiator = potentiators of human vanilloid receptor 1 (TRPV1). TRPV1-expressing cells, Fluo-8 calcium influx, capsaicin EC20 potentiation; host cell line not named in the record; control for the full effect not named in the record. potentiation, % at 8.33 µM. 320,000 tested, 0.02% active. AID 540277; active means potentiation above 80%; inconclusive means 30% to 80%; inactive means below 30%; note: 0% is about no effect
#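 Cells expressing TRPV1 were dye-loaded with Fluo-8 and read kinetically: 10 s baseline, 3 min after compound (agonist portion), then 2 min after EC20 capsaicin (allosteric enhancer portion). Calcium-bound dye fluorescence at 480/520 nm.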
# ClpP mod = qHTS Assay for Activators of ClpP | ATP-dependent Clp protease proteolytic subunit (Bacillus subtilis (strain 168)), P80244 | purified B. subtilis ClpP, FRET peptide cleavage, 20 min | Potency, µM (titrated, usually from 57.5 µM), for the others: at the highest dose activity change, negative = active | 340,000 tested, 1.9% active; active = well fitted falling curve with a large enough effect; inconclusive = small, poorly fitted or top-dose-only effect; inactive = no such curve, though single readings can be large or run the other way; note: potency is the fitted concentration of half-maximal effect; the source files actives as falling curves though it sought activators and does not explain the sign; nearly all actives have a fitted effect of over 65% in size; many hits overshoot -100%
# Target sequence (P80244 whole entry, looked up): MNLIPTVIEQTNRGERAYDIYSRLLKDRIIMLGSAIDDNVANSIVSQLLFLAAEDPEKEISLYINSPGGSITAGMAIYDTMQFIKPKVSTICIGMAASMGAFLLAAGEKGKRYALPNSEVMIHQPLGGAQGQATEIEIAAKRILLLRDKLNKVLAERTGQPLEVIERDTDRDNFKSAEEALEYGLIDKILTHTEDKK
#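 Buffer: 100 mM Tris/HCl pH8, 100 mM KCl, 0.05% low protease BSA, 2.5% glycerol, 0.01% Tween-20. ClpP 10 microg/mL final; 20 min RT; delta FRET normalized to ADEP and DMSO controls.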
# Starred values were filed as active, the others as inactive; u = inconclusive; x = no result given; & = joins results of further samples; [ ] = remark or other dose.
# Start of the data: the first 4 compounds, to show the layout:
SMILES,D2 potentiator,gsp ag,Sfp inh,Menin MLL FP FL,gsp antag,TRPV1 potentiator,ClpP mod
COC(=O)c1ccc(NS(=O)(=O)c2cc(-c3cc(C)no3)ccc2OC)cc1,-1,-44%[inhibitor],22%,2.7,7%,8,2.9%
Cc1ccc(NC(=O)CC2C(=O)OCC3CCCCN32)cc1Cl (stereo not given),-1,2%,7%,0.3,2%,-12,-1.5%
Cc1nn2c(=O)[nH]cnc2c1Cl,0,-5%,x,x,x,x,-0.9%
Cn1c(SCC(=O)Nc2nccs2)nnc1-c1ccco1,-6,20%,-5%,-1.0,-13%,-1,-2.6%

# All compounds of this part (from the top)
SMILES,D2 potentiator,gsp ag,Sfp inh,Menin MLL FP FL,gsp antag,TRPV1 potentiator,ClpP mod
COC(=O)c1ccc(NS(=O)(=O)c2cc(-c3cc(C)no3)ccc2OC)cc1,-1,-44%[inhibitor],22%,2.7,7%,8,2.9%
Cc1ccc(NC(=O)CC2C(=O)OCC3CCCCN32)cc1Cl (stereo not given),-1,2%,7%,0.3,2%,-12,-1.5%
Cc1nn2c(=O)[nH]cnc2c1Cl,0,-5%,x,x,x,x,-0.9%
Cn1c(SCC(=O)Nc2nccs2)nnc1-c1ccco1,-6,20%,-5%,-1.0,-13%,-1,-2.6%
O=C(O)c1[nH]c2ccccc2c1C(c1ccccc1)c1c(C(=O)O)[nH]c2ccccc12,-4,5%,20%,-0.6,10%,2,-0.7%
Oc1ccc(C[C@@H]2CNC(=S)N2CCc2cc(C(F)(F)F)cc(C(F)(F)F)c2)cc1,-12,-10%,20%,1.3,-10%,-6,2.7%
COc1nc2ccccc2c(=O)n1OCC(C)C,-6,-24%,-18%,0.6,4%,5,-1.6%
COc1ccc(-c2coc3cc(O)ccc3c2=O)cc1OC,-6,16%,7%,1.5,-6%,2,-29%
O=C(Cc1c(Cl)cccc1Cl)Nc1ccncc1,-11,16%,15%,x,1%,9,-1.5%
O=C(c1cc([N+](=O)[O-])cc([N+](=O)[O-])c1)N1CCCc2ccccc21,16,-1%[15.4 µM],17%,-1.4,10%,10,1.3%
CCCSc1nnc(CNS(=O)(=O)c2ccc(C)cc2)n1C,6,18%,8%,-0.1,2%,-15,0.7%
CC(NC(=O)CCCc1nnc2n(C)c(=O)c3sccc3n12)c1ccccc1 (stereo not given),-3,u,1%,-3.5,3%,-15,1.5%
C=CCSC1=N/C(=C\c2cc(OCC)c(OC(C)=O)c([N+](=O)[O-])c2)C(=O)S1,-19,-7%,56µM*,13,-16%,3,1.8%
Cc1ccc(C(=O)N/C(=C\c2ccc(-c3cc(Cl)ccc3Cl)o2)C(=O)NCc2cccnc2)cc1,-15,-54%[inhibitor],13%,u,-7%,-14,-29%
COc1ccc(NC(=O)CSc2nc3n[nH]c(C)c3c(=N)n2-c2ccc(Cl)c(C)c2)cc1OC,-5,11%,-7%,x,20%,18,x
Cc1[nH]c2ccccc2c1CN1CCc2ccccc2C1,-11,-8%,-22%,8.0,0%,10,1.7%
Nc1c(Cl)cc(-c2cn(CCC(=O)O)c(-c3ccc(Cl)nc3)n2)cc1Cl,-31,x,x,x,-1%,24,-2.5%
O=C(Cn1ccc(NC(=O)OCc2ccccc2)nc1=O)NCCCn1ccnc1,-3,x,x,x,5%,u,0.3%
CC(=O)Cc1nsc(NC(=O)c2ccco2)n1,-7,-4%,-4%,-2.7,0%,2,-0.3%
CC[n+]1c(/C=C/c2c[nH]c3ccccc23)ccc2cc(C)ccc21,-21,u,u,u,u,10,x
CC(=O)Nc1ccc(Nc2ncnc3c2nnn3Cc2ccccc2Cl)cc1,2,-12%,3%,-1.1,-6%,24,x
CC(=O)Nc1ccc(S(=O)(=O)NC2(C(F)(F)F)NC(=O)N(c3ccc(Cl)cc3)C2=O)cc1 (stereo not given),-1,-25%,10%,-0.9,5%,-14,-0.2%&-0.8%
CCOc1cc(NC(=S)Nc2cccc(OC)c2)c(OCC)cc1NC(=O)c1ccc(C)cc1,-9,9%,-23%,0.4,4%,x,-6.5%
C=C1CCC[C@]2(C)C[C@H]3OC(=O)C(CN4CCOCC4)[C@H]3C[C@@H]12 (stereo not given in full),-4,2%,6%,0.3,2%,-10,-1.1%
COc1c(Cl)cc(Cl)cc1C(=O)Nc1ccccc1N1CCN(C(C)=O)CC1,-9,1%,x,x,1%,x,-23%

# Profiles, quoted from the list.
# Entry for CC(=O)Cc1nsc(NC(=O)c2ccco2)n1 = D2 potentiator: -7; gsp ag: -4%; Sfp inh: -4%; Menin MLL FP FL: -2.7; gsp antag: 0%; TRPV1 potentiator: 2; ClpP mod: -0.3%
# Entry for Cc1[nH]c2ccccc2c1CN1CCc2ccccc2C1 = D2 potentiator: -11; gsp ag: -8%; Sfp inh: -22%; Menin MLL FP FL: 8.0; gsp antag: 0%; TRPV1 potentiator: 10; ClpP mod: 1.7%
# Entry for C=CCSC1=N/C(=C\c2cc(OCC)c(OC(C)=O)c([N+](=O)[O-])c2)C(=O)S1 = D2 potentiator: -19; gsp ag: -7%; Sfp inh: 56µM*; Menin MLL FP FL: 13; gsp antag: -16%; TRPV1 potentiator: 3; ClpP mod: 1.8%

# Two compounds drawn at random from those above:
SMILES,D2 potentiator,gsp ag,Sfp inh,Menin MLL FP FL,gsp antag,TRPV1 potentiator,ClpP mod
Cc1ccc(NC(=O)CC2C(=O)OCC3CCCCN32)cc1Cl (stereo not given),-1,2%,7%,0.3,2%,-12,-1.5%
CC(NC(=O)CCCc1nnc2n(C)c(=O)c3sccc3n12)c1ccccc1 (stereo not given),-3,u,1%,-3.5,3%,-15,1.5%

# The list continues:
SMILES,D2 potentiator,gsp ag,Sfp inh,Menin MLL FP FL,gsp antag,TRPV1 potentiator,ClpP mod
O=C(COC(=O)CCC(=O)N1CCOCC1)Nc1ccc(Br)cc1Br,-26,0%[15.4 µM],x,x,-2%,x,-2.0%
Cc1ccc(-c2nnn(CC(=O)N3C(C)CCCC3C)n2)cc1 (stereo not given),-20,-7%[15.4 µM],-2%,-4.6,-1%,-2,-2.0%
COc1ccc(-c2cc(CCCC(=O)NCCc3cc(OC)ccc3OC)no2)cc1,15,-111%[inhibitor],-23%,4.8,u,7,1.6%
CC(C)c1ccc(N2C(=O)CC(Sc3ncn[nH]3)C2=O)cc1 (stereo not given),-19,-4%,56µM*,0.0,12%,10,1.1%
Cc1ccc(NC2=NC(c3ccccc3)n3c(nc(C)cc3=O)N2)c(C)c1 (stereo not given),1,u,14%,4.0,11%,4,0.6%
Cc1cc(C=C2C(=O)c3ccccc3C2=O)c(C)n1-c1ccc(Cl)cc1,-8,-14%,-2%,u,7%,7,-0.5%
Cn1c(-c2ccc3c(c2)OCO3)cnc1NCc1cccc(Cl)c1,-28,u,-11%,u,9%,7,u
CN[C@H]1C[C@H]2c3[nH]c4ccc(-c5cccc(C)c5)cc4c3CCN2C[C@H]1[C@H](C)O,0,-5%,x,x,x,x,-12%
CCN=C1S/C(=C\c2ccc(N3CCOCC3)cc2C)C(=O)N1CC,-8,-12%,5%,u,-2%,-3,-2.5%
Cc1cc(NC(=O)CSc2nnc(-c3ccccc3Cl)o2)no1,-2,19%[15.4 µM],-1%,x,0%,1,x
CCOc1ccc(CN2CCN(S(=O)(=O)c3ccc(NC(C)=O)cc3)CC2)cc1OC,9,-36%[inhibitor],-21%,1.0,-11%,-8,0.5%
CCOc1ccccc1N(C)C(=O)C1CCN(S(=O)(=O)c2cccc3nonc23)CC1,-18,17%,6%,4.3,1%,-7,1.7%
Cc1c(NC(=O)c2ccc(F)cc2)c(=O)n(-c2ccccc2)n1C,-7,-21%,-5%,-1.7,8%,1,2.3%
CCOC(=O)N1CCN(C(=O)CCc2c(C)nc3nc(C)nn3c2C)CC1,13,-2%,12%,4.0,7%,-2,-10%
C/C=C/c1ccc(OCC(=O)NNC(=O)CN(C)S(=O)(=O)c2ccc(C)cc2)c(OC)c1,2,14%,x,x,-7%,x,-1.5%
CSCCC(NC(=O)c1ccc(Cl)cc1)C(=O)OCC(=O)Nc1cc(Cl)ccc1C (stereo not given),-24,20%,18%,4.9,1%,9,-4.2%
CC(=O)c1c(C)[nH]c(C(=O)Nc2ccccc2N2CCOCC2)c1C,-24,8%[15.4 µM],18%,2.5,8%,-16,-2.6%
Cc1ccc(C(=O)Nc2sc(C)c(-c3ccccc3)c2C(N)=O)cc1[N+](=O)[O-],-16,u,45µM*,1.5,-2%,-2,-0.1%
COc1cc(OC)cc(C(=O)Nc2cc(C)on2)c1,-21,28%,26%,-3.8,-5%,-4,-6.6%
CC1=C(c2ccc(C)cc2)S(=O)(=O)N(CC(=O)O)C1=O,-7,-1%,21%,-0.3,-5%,1,1.4%
CCCCN(C(=O)C1CCC1)c1c(N)n(CC(C)C)c(=O)[nH]c1=O,-16,u,x,x,-2%,u,-1.7%
O=C(Cn1c(=O)oc2cc(S(=O)(=O)N3CCCC3)ccc21)N1CCN(C2CCCCC2)CC1,-1,0%,10%,1.4,3%,15,0.1%
C#Cc1ccc([C@H]2C=C(C(=O)OCC=C)O[C@@H](OCc3ccc(CO)cc3)C2)cc1,-36,x,x,x,-16%,x,-0.1%
CC(C)C[C@H](NC(=O)c1[nH]cnc1C(=O)N[C@H](C)c1ccccc1)C(=O)OC(C)(C)C,-7,x,29%,6.4,0%,3,1.5%
COc1cc(C(CCN2CCN(c3ccccc3)CC2)c2c(OC)cc(OC)c3ccc(=O)oc23)cc(OC)c1OC (stereo not given),-15,x,-11%&-8%,-3.3&3.0,-2%,-8,-3.3%
Nc1n[nH]c2ccccc12,-5,25%,15%,3.0,1%,3,-20%

# Assay outcomes: PubChem, National Center for Advancing Translational Sciences (NCATS)
